VACV Venus inh: vaccinia inhibition (Venus reporter). AID 720580. Vaccinia virus Venus reporter expression, fluorescence. Potency, µM (titrated, usually from 36.5 µM), for the others: at the top dose activity change, negative = inhibition, usual class: inhibitors. hit rate 0.46% among 330,000; active means well fitted inhibition curve with a large enough effect; inconclusive means small, poorly fitted or top-dose-only effect; inactive means no such curve, though single readings can be large or run the other way; tested in A549 cells; also: nearly all actives have a fitted effect of over 30% in size; inactives centre near -10
Vaccinia mCherry: vaccinia inhibition (mCherry reporter); Vaccinia virus mCherry reporter infection, fluorescence; about a quarter of the inactives have no number; Potency, µM (doses to about 36.5 µM), inactives show at the highest dose activity change, negative = inhibition, most hits filed as inhibitors; hit rate 0.63% among 310,000; AID 720579; active = well fitted inhibition curve with a large enough effect; inconclusive = small, poorly fitted or top-dose-only effect; inactive = no such curve, though single readings can be large or run the other way; tested in A549 cells; also: nearly all actives have a fitted effect of over 35% in size; inactives centre near -10
* hit, by the source's call; i = inactive; u = inconclusive; x = no result given; & = joins results of further samples; [ ] = dose if it differs, or a comment. % is scaled to controls: 0 for no effect and ±100 for the full control effect; potency is read from the fitted curve at half-maximal effect.

SMILES	VACV Venus inh	Vaccinia mCherry
CCc1nnc2c(Nc3cc(OC)c(Cl)cc3OC)nc3ccccc3n12	6%	-5%
COc1ccc(-c2nn(-c3ccccc3)cc2C#N)cc1	-29%	x
C=CCc1cccc(/C=N/c2nc3ccccc3n2CC)c1O	-7%	-9%
CN(C)S(=O)(=O)N1CCN(C(=O)c2ccccc2Cl)CC1	-3%	-13%
CCCCn1c(N)c(C(=O)OCC2CCCO2)c2nc3ccccc3nc21 (stereo not given)	-19%	u
Cc1cccc(N2CC(C(=O)Nc3ccccc3N3CCOCC3)CC2=O)c1C (stereo not given)	-5%	-14%
CCCCC(=O)N/N=C/c1cc([N+](=O)[O-])ccc1N1CCOCC1	-14%	i
COc1ccc(CNC(=O)c2sc3nc4n(c(=O)c3c2C)CCCCC4)cc1	-6%	1%
CN(C)Cc1nc2c([nH]1)c(=O)n(C)c(=O)n2C	-3%	i
CCCCN(CC)CCCNC(=O)c1ccc2c(c1)N(CC)C(=O)c1ccccc1S2(=O)=O	-24%	i
Cc1ccc2c(c1)cc(C)c1nnc(SCC(=O)NCc3ccco3)n12	-12%	-21%
CCCCN(CC)CCCNC(=O)c1nn(-c2ccc(OC)cc2)c(=O)c2c1c1ccccc1n2C	0%	2%
COc1cccc2sc(Nc3nnc(-c4cccs4)o3)nc12	u	u
O=C(CN1CCN(S(=O)(=O)c2ccc(F)cc2)CC1)NCc1cccs1	-7%	u
CCOC(=O)c1ccc(NC(=O)Cn2cc(S(=O)(=O)Cc3ccccc3F)c3ccccc32)cc1	u	u
Cc1cc(C)n(-c2nncn2/N=C/c2ccccc2F)n1	-6%	i
O=C(CC1N=C2c3ccccc3N=C(SCc3ccccc3Cl)N2C1=O)NC1CCCCC1 (stereo not given)	-21%	-28%
O=C(Nc1ccc(N2CCN(C(=O)c3cccs3)CC2)cc1)c1cccnc1	-10%	i
COC(=O)c1ccc(C(NC(=O)OCc2ccccc2)/C(F)=C/[C@@H](C)C(=O)NCc2ccc(-c3ccccc3)cc2)cc1 (stereo not given in full)	-8%	i
CC(OC(=O)CCc1nc2ccccc2c(=O)[nH]1)C(=O)Nc1ncc(Cl)cc1Cl (stereo not given)	-12%	i
O=C(COC(=O)c1nc(Cl)ccc1Cl)NNC(=O)c1ccccc1	-8%	-13%
NC(=O)c1ncn(C2OC(CO)C(O)C2O)c1N (stereo not given)	-8%	-13%
CCOc1ccccc1C(=O)OCC(=O)NCC1CCCCC1	-10%	-10%
COc1ccc(Oc2coc3cc(OC(=O)N4CCOCC4)ccc3c2=O)cc1	-19%	-8%
CCOc1ccc(CCNC(=O)C2=C(C)C(=O)OC23CCC(C)CC3)cc1 (stereo not given)	-13%	-6%
COc1ccc(C(CNc2ncnc3sccc23)N(C)C)cc1OC (stereo not given)	11%	-1%
CC1CCN(C(=O)COC(=O)c2cc([N+](=O)[O-])ccc2N2CCOCC2)CC1	-7%	-15%
C=CCN1C(=O)/C(=C/N(C)C)S/C1=N\S(=O)(=O)c1cccs1	-10%	i
COc1ccc(-c2noc(CCC(=O)Nc3cc(OC)ccc3OC)n2)cc1	-22%	x
CCOc1ccc(NC(=O)CN(C)C(=O)CSCc2c(C)noc2C)cc1OCC	7%	-13%
CCOC(=O)C1=C(c2ccccc2)OC(N)=C(C#N)C1c1ccncc1 (stereo not given)	-10%	i
Cc1ccsc1CN(C(=O)c1oc2ccccc2c1C)C1CCS(=O)(=O)C1 (stereo not given)	-15%	-18%
N#Cc1nc(-c2cccs2)oc1NCc1ccco1	-11%	-9%
Nc1cc2c(cc1N)-c1ccccc1C2	13%	u
O=C(/C=C/[C@H]1O[C@@H](n2cnc3c(NC(=O)c4ccccc4)ncnc32)[C@H](O)[C@@H]1O)NCc1ccccc1	4%	9%
COc1ccc(CNc2ccc3c(c2)ncn3-c2ccccc2OC)cc1	-13%	i
Cc1cccc2nc(CNC(=O)C3CCC(=O)N(Cc4ccccc4F)C3)cn12 (stereo not given)	-8%	-12%
Cc1cccc(CC(=O)NCCc2sc3nc(-c4ccc(F)cc4)nn3c2C)c1	-24%	-24%
O=C(NCc1ccc(Cl)cc1)c1noc2c1CCCCC2	-14%	-4%
COC(=O)N1C(=O)[C@](Cc2ccccc2)(c2ccccc2)N1C(=O)OC	10µM*	13µM*

In the list so far, these contain a Cl atom:
SMILES	VACV Venus inh	Vaccinia mCherry
CCc1nnc2c(Nc3cc(OC)c(Cl)cc3OC)nc3ccccc3n12	6%	-5%
CN(C)S(=O)(=O)N1CCN(C(=O)c2ccccc2Cl)CC1	-3%	-13%
O=C(CC1N=C2c3ccccc3N=C(SCc3ccccc3Cl)N2C1=O)NC1CCCCC1 (stereo not given)	-21%	-28%
CC(OC(=O)CCc1nc2ccccc2c(=O)[nH]1)C(=O)Nc1ncc(Cl)cc1Cl (stereo not given)	-12%	i
O=C(COC(=O)c1nc(Cl)ccc1Cl)NNC(=O)c1ccccc1	-8%	-13%
O=C(NCc1ccc(Cl)cc1)c1noc2c1CCCCC2	-14%	-4%

(more compounds)
SMILES	VACV Venus inh	Vaccinia mCherry
COC(=O)c1ccc(/C=N/NC(=S)NC(C)C)cc1	3%	-12%
Cc1cccc(C2=NN(c3ccc(Br)cc3)[C@@H](C(=O)N3CCOC3=O)[C@@H]2C)c1	u	u
COC(=O)c1ccccc1NC(=O)COC(=O)c1cccnc1	-12%	-3%
C=CCN(CC=C)CC(O)Cn1c2ccccc2c2ccccc21 (stereo not given)	u	u
CCOc1ccc(C(CC(=O)O)NC(=O)C(Sc2ccccc2)c2ccccc2)cc1 (stereo not given)	11%	-12%
S=C(NCCN1CCOCC1)NC1CCCC1	-12%	i
c1ccc(-c2nn3c(C4CCCCC4)nnc3s2)nc1	-4%	x
CNC(=O)Nc1ccccc1C(=O)NCc1ccccc1	-3%	x
CC12CCC(C3NC(=S)NN=C31)C2(C)C (stereo not given)	1%	i
Cc1noc(C)c1/C=N/Nc1ccc2ccccc2n1	-6%	-13%
CCC(C)NS(=O)(=O)c1ccc(OC)c(Cl)c1Cl (stereo not given)	u	-18%
CC1(C)CC(N2CCCCC2)=CC(=[N+]2CCCCC2)C1	-1%	-12%
CCSc1nc(-c2ccccc2OC)nc2c1Cc1c(CO)cnc(C)c1O2	-6%	-15%
CC1(C)C(=O)CCC2C1=CCC1C2CCC2(C)C(O)CCC12 (stereo not given)	-6%	-11%
CC1CN(C(=O)CSc2nnc(-c3ccc(Cl)cc3)n2C)CC(C)O1 (stereo not given)	-9%	-14%
CS(=O)(=O)c1ccc(NS(=O)(=O)c2ccc(Cl)c(C(=O)NC3=NCCS3)c2)cc1	-9%	-11%
COc1ccc(NC(=O)Cn2cc(C(=O)C3CC3)c3ccccc32)cc1	0%&-7%	-22%
Cc1coc2c1c(C)cc1oc(=O)c(CC(=O)NCCCN3CCCC3=O)c(C)c12	0%	4%
Cc1c(C)n(Cc2ccc(Cl)cc2)c2ccc(C(=O)N3CCN(c4ccccc4F)CC3)cc12	-6%	-14%
CC(C)Cn1c(SCC(=O)NC2CC2)nc2ccccc21	-13%	-24%

Some of the entries above in another layout.
Order of results: VACV Venus inh, Vaccinia mCherry
- CC1CN(C(=O)CSc2nnc(-c3ccc(Cl)cc3)n2C)CC(C)O1 (stereo not given)
 : -9%, -14%
- Cc1c(C)n(Cc2ccc(Cl)cc2)c2ccc(C(=O)N3CCN(c4ccccc4F)CC3)cc12
 : -6%, -14%

Ordered by formula weight (lowest first): some entries from above
SMILES	VACV Venus inh	Vaccinia mCherry
CC1(C)C(=O)CCC2C1=CCC1C2CCC2(C)C(O)CCC12 (stereo not given)	-6%	-11%
CCSc1nc(-c2ccccc2OC)nc2c1Cc1c(CO)cnc(C)c1O2	-6%	-15%
CS(=O)(=O)c1ccc(NS(=O)(=O)c2ccc(Cl)c(C(=O)NC3=NCCS3)c2)cc1	-9%	-11%

Going on with the list:
SMILES	VACV Venus inh	Vaccinia mCherry
CCCN(C(=O)CSc1nnc(-c2ccc3c(c2)OCO3)o1)C1CCS(=O)(=O)C1 (stereo not given)	-14%	-8%
CCOc1ccc(N2C(=O)CC(N3CCN(C4CCc5ccccc5C4)CC3)C2=O)cc1 (stereo not given)	-3%	x
COc1ccccc1NC(=O)N1CCN(c2ccc3nnc(-c4ccc(F)cc4)n3n2)CC1	u	u
COc1ccc([C@H]2N[C@]3(CCCN(Cc4ccco4)C3=O)[C@H]3C(=O)N(C)C(=O)[C@@H]23)cc1	5%	-5%
O=C(COC(=O)C1CCN(c2ccc(C(F)(F)F)cn2)CC1)Nc1ccc(Cl)cn1	-13%	i
CCc1cc(C(c2ccccn2)N2CCN(C)CC2)c(NC(=O)c2ccccc2)s1 (stereo not given)	u	u
OCC[C@@H]1C[C@H](O)[C@@H](O)[C@@]2(CCc3ccccc3CO2)O1	-9%	-13%
CCC(C)NC(=O)c1cc2c(=O)n3cccc(C)c3nc2s1 (stereo not given)	-13%	-26%
CN1CCN(CC(=O)Nc2nnc(-c3cccs3)s2)CC1	-12%	-8%
COc1ccccc1N1CCN(S(=O)(=O)c2c(C)nc3sc(C)c(C)n3c2=O)CC1	-8%	-4%
O=C(Nc1ccc(Cl)cc1F)c1oc(=O)c2ccccc2c1-c1ccccc1	7%	3%
CC(C)Cc1nc2cc(NS(=O)(=O)N(C)C)cc(C(=O)N3CCOCC3)c2n1C	-5%	-13%
Cc1ccc(C(=O)C2CCN(CC(=O)Nc3nc(C)cs3)CC2)cc1	-26%	u
CN(C(=O)CSc1nc2ccc(NC(=O)c3ccccc3)cc2s1)c1ccccc1	-12%	i
CC(C)OC(=O)c1ccc(NC(=O)c2ccco2)cc1	-16%	x
CN(C)/C=C(\C=O)c1onc(-c2ccccc2Cl)c1C#N	-7%	i
Cc1ccc(S(=O)(=O)NCCC(=O)NC(C)CCc2ccccc2)cc1 (stereo not given)	-8%	-17%
CC(C)CN(C(=O)c1ccco1)C1CCS(=O)(=O)C1 (stereo not given)	-10%	-14%
O=C(Nc1ccc2nc([C@H]3C[C@H](O)[C@@H](CO)O3)[nH]c2c1)NC(c1ccccc1)c1ccccc1	0%	11%
Cc1nn(-c2ccccc2)c(NC(=O)c2ccccc2)c1Br	14%	-9%
Cn1cccc1C(=O)OCC(=O)Nc1ccc2c(c1)OCO2	2%	i
COCc1cc(=O)n2[nH]c(C(C)(C)C)cc2n1	-7%	-17%
Cc1ccc(NCc2ccncc2)c(Br)c1	-10%	i
CC(c1ccco1)N(C(=O)c1ccccc1NS(=O)(=O)c1ccc(Cl)cc1)c1ccccn1 (stereo not given)	-1%	-17%
C=CCOC(=O)C1=C[C@@H](c2coc3ccccc3c2=O)C[C@@H](OCc2ccc(CO)cc2)O1	-19%	i
CCOc1ccccc1C1Nc2ccccc2-c2nnc(SCc3ccccc3)nc2O1 (stereo not given)	5%	-5%
C=CCOc1c(Br)cc(C2NC(=O)NC(C)=C2C(C)=O)cc1OCC (stereo not given)	-1%	-14%
Cc1cccc(C)c1OCc1cc(C(=O)N2CCN3CCCC3C2)no1 (stereo not given)	-14%	-12%
Cc1cc(C(=O)O)ccc1-c1ccc(CO)o1	-14%	i
Cc1ccc(Nc2nc(Cl)c(C=O)s2)cc1Cl	12%	-1%

One compound at a time, as listed above. Order of values: VACV Venus inh | Vaccinia mCherry
Profile of `Cc1c(C)n(Cc2ccc(Cl)cc2)c2ccc(C(=O)N3CCN(c4ccccc4F)CC3)cc12` = -6% | -14%
Profile of `OCC[C@@H]1C[C@H](O)[C@@H](O)[C@@]2(CCc3ccccc3CO2)O1` = -9% | -13%
Profile of `Cc1ccsc1CN(C(=O)c1oc2ccccc2c1C)C1CCS(=O)(=O)C1` (stereo not given) = -15% | -18%

Following part.
SMILES	VACV Venus inh	Vaccinia mCherry
Cc1c(NC2=CC(=O)CC(C)(C)C2)ccc([N+](=O)[O-])c1C	3%	0%
Cc1nc2ccc(NC(=O)c3sccc3C)cc2s1	-19%	-14%[1.46 µM]
O=C(O)c1cncc(C#CCC2CCCCC2)c1	-10%	i
CC(C)c1ccc(OCC(O)CN2CCN(c3ccc(F)cc3)CC2)cc1 (stereo not given)	-28%	-28%
COc1ccc2nc3sc(C(=O)Nc4cc(Cl)c(OC)cc4OC)cc3cc2c1	u	u
CCn1c(-c2csc3c2CCCC3)n[nH]c1=S	-15%	-13%
O=S(=O)(NCc1ccccc1)c1ccc(S(=O)(=O)N(Cc2ccccn2)Cc2ccco2)cc1	3%	-21%
Cc1ccc2c(c1)C(c1ccc(F)cc1)N(C(=O)c1cccc(C(F)(F)F)c1)CC(=O)N2 (stereo not given)	-11%	-12%
Cc1ccc(/C=N/Nc2nc(C)cc(C)n2)cc1	-6%[7.34 µM]	0%[7.34 µM]
COC(=O)C[C@@H]1CC[C@H](NC(=O)CC2CC2)[C@@H](CO)O1	-4%	5%
CCO[C@@H]1OC(C(=O)NCc2nc3ccccc3[nH]2)=C[C@H](C2CC2)[C@H]1CCCO	-27%	i
N#Cc1ccccc1NC(=O)CN1CC=C(c2ccccc2)CC1	-6%	i
CCS(=O)(=O)N1CCCC(C(=O)NC2CCCCC2)C1 (stereo not given)	-9%	x
CC(C(=O)NCC1CCCO1)n1cccc1C(=O)c1ccccc1 (stereo not given)	-16%	x
CC(C)Cc1ccc(C(C)C(=O)N2CCOCC2)cc1 (stereo not given)	-10%	-2%
COC(=O)c1ccc(NC(=O)CCS(=O)(=O)c2ccc(Br)cc2)cc1	-12%&-8%	-4%
O=C(Cn1cc(-c2ccccn2)nn1)NS(=O)(=O)c1cccc(OC(F)F)c1	-1%	-12%

Screening data (PubChem BioAssay)
